Assay outcomes (PubChem)
Cruzain inh Det – cruzain (T. cruzi) inhibition with detergent; purified cruzain, Z-FR-AMC fluorescence, 0.01% Triton; Potency, µM, without a hit: max response, negative = inhibition, usual class: inhibitors; 200,000 tested, 0.43% active;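 further: plate controls were neutral wells for no effect and buffer without enzyme for full effect; nearly all actives have a fitted effect of over 40% in size; top concentration of the series not given in the record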
Target sequence (P25779 123-467 limits assumed): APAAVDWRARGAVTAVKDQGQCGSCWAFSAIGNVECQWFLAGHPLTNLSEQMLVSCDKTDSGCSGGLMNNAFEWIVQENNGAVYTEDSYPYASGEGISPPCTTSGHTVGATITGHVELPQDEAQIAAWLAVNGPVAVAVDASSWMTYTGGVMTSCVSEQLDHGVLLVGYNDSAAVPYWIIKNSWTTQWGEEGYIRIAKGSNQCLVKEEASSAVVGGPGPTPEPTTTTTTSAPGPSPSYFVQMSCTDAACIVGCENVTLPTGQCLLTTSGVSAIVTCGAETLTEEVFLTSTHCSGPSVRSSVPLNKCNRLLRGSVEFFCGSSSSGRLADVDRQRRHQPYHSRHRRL
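15 min RT preincubation of 1.5 nM cruzain with compound, then 2 uM Z-FR-AMC added; kinetic AMC fluorescence, 60 s delta. Triton X-100 0.01%, pH 5.5.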
Cruzain noTriton – inhibitors of Trypanosoma cruzi cruzain without detergent; purified cruzain, Z-FR-AMC fluorescence, no detergent; Potency, µM, without a hit: max response, negative = inhibition, hits mostly inhibitors; AID 1476; P25779; 200,000 tested, 2.3% active;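 further: plate controls were enzyme without inhibitor for no effect and buffer without enzyme for full effect; nearly all actives have a fitted effect of over 40% in size; top concentration of the series not given in the record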
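Purified cruzain at 1.5 nM, pre-incubated 15 min with compound at room temperature in 100 mM sodium acetate pH 5.5, 5 mM DTT, 0.00005% Triton X-100. Reaction started with 2 uM Z-FR-AMC; AMC fluorescence increase over 60 s gives rate.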
2A StopGo – lowers the luciferase signal of an FMDV 2A StopGo reporter; human cells with a luciferase reporter of 2A StopGo recoding; control for the full effect not named in the record; Potency, µM (top dose mostly 57.9 µM), for inactives: at the top dose signal change, negative = less light; 410,000 tested, 1.2% active; AID 1159524; active = well fitted falling curve with a large enough effect; inconclusive = small, poorly fitted or top-dose-only effect; inactive = no such curve, though single readings can be large or run the other way; tested in HEK293T cells; further: on the % scale 0 is the no-effect control and ±100 the full control effect; nearly all actives have a fitted effect of over 45% in size; luciferase light after 4 h
NS1 inh – blocks influenza NS1 protein function | 270,000 tested, 0.4% active | Potency, µM (titrated, usually from 46.1 µM), without a hit: top-dose activity, positive = more growth | S. cerevisiae slowed by influenza A NS1, growth recovery by OD600; active means well fitted rising curve with a large enough effect; inconclusive means small, poorly fitted or top-dose-only effect; inactive means no such curve, though single readings can be large or run the other way; further: nearly all actives have a fitted effect of over 50% in size
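In this qHTS, NS1 from influenza A is expressed in budding yeast, where it slows growth. Cells are switched from glucose to 2% galactose medium (pH 6.0, -URA), treated with compound, and growth recovery is read at OD600.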
SARS PLP yeast – blocks SARS-CoV papain-like protease in a yeast assay; AID 485353; Potency, µM (series often up to 32.9 µM), inactives show at the highest dose activity, positive = growth rescue; 330,000 tested, 0.19% active; S. cerevisiae expressing SARS-CoV PLpro, growth rescue; control for the full effect not named in the record; active means well fitted rising curve with a large enough effect; inconclusive means small, poorly fitted or top-dose-only effect; inactive means no such curve, though single readings can be large or run the other way; further: 0% is about no effect; nearly all actives have a fitted effect of over 55% in size; growth read by luminescence after 48 h
Lassa entry inh – blocks Lassa virus binding to or entry into cells; Potency, µM (highest dose often 37.9 µM), without a hit: at the top dose activity change, negative = inhibition, actives largely listed as inhibitors; 300,000 tested, 1.2% active; Lassa virus pseudotype entry inhibition, cell reporter; control for the full effect not named in the record; active means well fitted inhibition curve with a large enough effect; inconclusive means small, poorly fitted or top-dose-only effect, or effect the other way; inactive means flat fitted curve, though single readings scatter; tested in HEK293 cells; further: on the % scale 0 is the no-effect control and ±100 the full control effect; nearly all actives have a fitted effect of over 50% in size; luciferase read-out
Marburg entry inh – inhibitors of Marburg virus binding or cell entry | Marburg virus pseudotyped entry inhibition, cell reporter; control for the full effect not named in the record; about a third of the inactives were read at about 46 µM | Potency, µM (doses to about 37.8 µM), inactives show at the highest dose activity change, negative = inhibition, usual class: inhibitors | 300,000 tested, 1.8% active; active = well fitted inhibition curve with a large enough effect; inconclusive = small, poorly fitted or top-dose-only effect, or effect the other way; inactive = flat fitted curve, though single readings scatter; tested in HEK293 cells; about a fifth of its hits are not listed in these tables; further: on the % scale 0 is the no-effect control and ±100 the full control effect; luciferase read-out
RE007 growth inh – less growth of the S. pombe RE007 Vpr strain | S. pombe RE007 Vpr strain, BacTiter-Glo ATP luminescence, 24 h; control for the full effect not named in the record | Potency, µM (highest dose often 92.2 µM), without a hit: top-dose activity change, negative = less growth | 360,000 tested, 0.21% active | AID 651644; active = well fitted falling curve with a large enough effect; inconclusive = small, poorly fitted or top-dose-only effect; inactive = no such curve, though single readings can be large or run the other way;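 further: on the % scale 0 is the no-effect control and ±100 the full control effect; nearly all actives have a fitted effect of over 50% in size; the assay follows cell death caused by Vpr and the record does not say whether a fall means rescue or toxicity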
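Fission yeast RE007 carrying one integrated HIV-1 vpr copy, seeded at OD 0.01 in PMG+AL medium with 23 nL pinned compound. Grown 24 h at 30 degrees; viability read by BacTiter-Glo luminescence after 5 min.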
The depositor's hits bear a star; & = joins results of further samples; [ ] = remark or other dose. Unless noted, the call rests on the fitted dose curve; in most records, active means well fitted curve in the direction sought with a large enough effect; inconclusive means small, poorly fitted or top-dose-only effect, or another doubt; inactive means no such curve, though single readings can be large; an effect the other way counts as inactive or inconclusive. Potency means the concentration at half of the fitted maximal effect.

Screening COc1ccc(N2CC(C(=O)Nc3ccc(F)cc3F)CC2=O)cc1 (stereo not given) returned Cruzain inh Det -3.9%, Cruzain noTriton 2%, 2A StopGo -22%, NS1 inh -4%, SARS PLP yeast 1%, Lassa entry inh -10%, Marburg entry inh 15% and RE007 growth inh 7%.
Screening CCc1cccc(NC(=O)CNS(=O)(=O)c2ccc3nc(C)sc3c2)c1 returned Cruzain inh Det -1.8%, Cruzain noTriton -1%, 2A StopGo 2%, Lassa entry inh -14%[46.1 µM] and Marburg entry inh -10%[46.1 µM].
`CN(CC(=O)Nc1cccc(F)c1)C(=O)CCNC(=O)c1ccco1` gave 2A StopGo -4%, SARS PLP yeast 5%, Lassa entry inh -5%, Marburg entry inh -19%[46.1 µM] and RE007 growth inh -7%.
For COc1ccc(Oc2nc(C(F)(F)F)nc3ccccc23)cc1 the results were Cruzain inh Det -5.4%, Cruzain noTriton 0%, 2A StopGo inconclusive, NS1 inh -14%, SARS PLP yeast -23%, Lassa entry inh inconclusive, Marburg entry inh inconclusive and RE007 growth inh 20%.
Screening Nc1cccc(NC(=O)CCC(=O)NCc2ccco2)c1 returned 2A StopGo 6%, NS1 inh 1%, SARS PLP yeast -2%, Lassa entry inh -1%, Marburg entry inh -2% and RE007 growth inh -2%.
`COc1ccc(NS(=O)(=O)c2cccc(NC(=O)CCC(=O)c3ccc(Cl)cc3)c2)cc1` gave Cruzain inh Det -8.4%, Cruzain noTriton 1%, 2A StopGo inconclusive, NS1 inh 7%, SARS PLP yeast -5%, Lassa entry inh inconclusive, Marburg entry inh inconclusive and RE007 growth inh 7%.
Screening Oc1ccccc1N1CCN(C(=S)NCCc2ccccc2)CC1 returned Cruzain inh Det -6.0%, Cruzain noTriton 2%, 2A StopGo -9%, NS1 inh 5%, SARS PLP yeast -16%, Lassa entry inh -10%, Marburg entry inh 18% and RE007 growth inh 3%.
For CCS(=O)(=O)N1N=C(c2cccc(NS(C)(=O)=O)c2)CC1c1cccs1 (stereo not given) the results were 2A StopGo 6%, NS1 inh -2%, SARS PLP yeast -1% and RE007 growth inh -13%.
`COC(=O)[C@H](C)NC(=O)Nc1cccc(C(F)(F)F)c1` gave Cruzain inh Det -1.6%, Cruzain noTriton -2%, 2A StopGo -13%, NS1 inh -11%, SARS PLP yeast -13%, Lassa entry inh 2%, Marburg entry inh -2% and RE007 growth inh 2%.
Screening O=[N+]([O-])c1ccc(O)c([N+](=O)[O-])c1 returned Cruzain inh Det -20%&-2.8%, Cruzain noTriton -24%&-10%, 2A StopGo inconclusive and RE007 growth inh 8%[18.4 µM].
COc1ccc(-n2nc(C(=O)NCC(=O)Nc3cc(OC)c(OC)c(OC)c3)c3ccccc3c2=O)cc1Cl was read as 2A StopGo -26%, NS1 inh 4%, SARS PLP yeast 0%, Lassa entry inh -27%, Marburg entry inh inconclusive and RE007 growth inh 8%.
CCOC(=O)C(NC(C)=O)(N1CCOCC1)C(F)(F)F (stereo not given) was read as Cruzain inh Det 1.9%, Cruzain noTriton 3%, NS1 inh inconclusive, SARS PLP yeast 4% and Marburg entry inh -4%.
COc1ccc(NCC(=O)Nc2ccc(C#N)cc2)cc1Cl was read as Cruzain inh Det 1.8%, Cruzain noTriton -26%, 2A StopGo 1%, NS1 inh -9%, SARS PLP yeast -14%, Lassa entry inh 15%, Marburg entry inh 5% and RE007 growth inh -14%.
`COc1ccc(CCNC(=O)CC(=O)N/N=C/c2ccc(Br)cc2)cc1OC` gave 2A StopGo -24%, NS1 inh -6%, SARS PLP yeast -5% and RE007 growth inh 3%.
`CCOC(=O)c1sc2nc3n(c(=O)c2c1C)CCC(C)CC3` (stereo not given) gave Cruzain inh Det -4.2%, Cruzain noTriton 11%, NS1 inh -33%, SARS PLP yeast 14%, Lassa entry inh -3%, Marburg entry inh 4% and RE007 growth inh -16%.
Screening CCOc1ccc(OCCC(=O)N(CCC2=CCCCC2)c2c(N)n(Cc3ccccc3)c(=O)[nH]c2=O)cc1 returned 2A StopGo -15%, SARS PLP yeast -5%, Lassa entry inh inconclusive, Marburg entry inh 10% and RE007 growth inh -1%.
For CC(=O)n1cc(C2C(=O)CC(C)(C)CC2=O)c2ccccc21 the results were Cruzain inh Det 0.2%, Cruzain noTriton 1%, 2A StopGo 5%, NS1 inh -8%, SARS PLP yeast 7%, Lassa entry inh -3%, Marburg entry inh 8% and RE007 growth inh 9%.
For O=C1CCC(C(=O)OCc2cc(=O)oc3ccc4ccccc4c23)=NN1 the results were 2A StopGo -19%, NS1 inh -31%, SARS PLP yeast -4% and RE007 growth inh -8%.
`C/C(=N\NC(=O)Cn1cc([N+](=O)[O-])cn1)c1ccc(O)cc1` gave 2A StopGo 11%, NS1 inh 8%, SARS PLP yeast -1% and RE007 growth inh 24%.
Screening CCOc1ccc(CC(=O)NNC(=S)Nc2ccc(OC)c(OC)c2)cc1 returned 2A StopGo 19%, NS1 inh 12%, SARS PLP yeast 0%, Lassa entry inh inconclusive, Marburg entry inh -7%[46.1 µM] and RE007 growth inh 10%.

Reprinted at random: 2 compounds from above, in no set order.
For O=C1CCC(C(=O)OCc2cc(=O)oc3ccc4ccccc4c23)=NN1 the results were 2A StopGo -19%, NS1 inh -31%, SARS PLP yeast -4% and RE007 growth inh -8%.
Screening O=[N+]([O-])c1ccc(O)c([N+](=O)[O-])c1 returned Cruzain inh Det -20%&-2.8%, Cruzain noTriton -24%&-10%, 2A StopGo inconclusive and RE007 growth inh 8%[18.4 µM].

Following part.
Screening C1=CC2C3C=CC(C3)C2C1 (stereo not given) returned Cruzain inh Det 7.5%, Cruzain noTriton 9%, 2A StopGo -24%, SARS PLP yeast 3% and RE007 growth inh 7%.
CCCNS(=O)(=O)c1ccc(OCC(=O)N2CCN(Cc3ccc4c(c3)OCO4)CC2)c(C)c1 was read as 2A StopGo -21%, SARS PLP yeast 0%, Lassa entry inh inconclusive, Marburg entry inh inconclusive and RE007 growth inh 5%.
Cc1ccc(NS(=O)(=O)c2ccc(C(=O)NC3CCN(Cc4ccccc4)CC3)cc2)cc1 was read as 2A StopGo inconclusive, SARS PLP yeast -2%, Lassa entry inh 11µM*, Marburg entry inh inconclusive and RE007 growth inh 17%.
Screening O=C(O)CCCn1cc(NC(=O)COc2ccc(F)cc2)cn1 returned 2A StopGo 87%[activator], NS1 inh 8%, SARS PLP yeast -2%, Lassa entry inh -24%[46.1 µM], Marburg entry inh 1%[46.1 µM] and RE007 growth inh -2%.
O=C(c1ccccc1)c1ccccc1N/C=C/c1nnnn1-c1ccccc1 was read as Cruzain inh Det 1.8%, Cruzain noTriton inconclusive, 2A StopGo 9%, NS1 inh 4%, SARS PLP yeast 5%, Lassa entry inh 13µM*, Marburg entry inh inconclusive and RE007 growth inh -7%.
Screening O=C1C(Nc2ccccc2)=C2CCCC=C2N1c1ccccc1 returned 2A StopGo 24%, SARS PLP yeast 4%, Lassa entry inh inconclusive, Marburg entry inh 0%[46.1 µM] and RE007 growth inh 8%.
For CC1CC(C)CN(S(=O)(=O)c2cc3c4c(c2)C(C)C(=O)N4CCC3)C1 (stereo not given) the results were 2A StopGo 11%, NS1 inh 15%, SARS PLP yeast inconclusive and RE007 growth inh 4%.
For COCCOC(=O)c1[nH]c2c(c1C)C(=O)CC(c1ccc(OC)c(OC)c1)C2 (stereo not given) the results were 2A StopGo inconclusive, NS1 inh 13%, SARS PLP yeast -1% and RE007 growth inh -4%.
Screening CCN(CC)CCCNC(=O)Cn1ccc2ccccc2c1=O returned 2A StopGo -10%, SARS PLP yeast 10%, Lassa entry inh -16%, Marburg entry inh -10% and RE007 growth inh -6%.
`O=C(Nc1ccc2nn(-c3ccccc3)nc2c1)c1ccc(-c2cccc(Cl)c2)o1` gave Cruzain inh Det 1.9%, Cruzain noTriton -3%, 2A StopGo -11% and Lassa entry inh -2%[46.1 µM].
Screening COc1ccc(CN(CC(=O)NCc2ccccc2)C(=O)CCC(=O)Nc2ccccn2)cc1 returned 2A StopGo 5%, NS1 inh 2%, SARS PLP yeast -13%, Lassa entry inh -12%[46.1 µM], Marburg entry inh -2%[46.1 µM] and RE007 growth inh -13%.
`COc1cc(OC)c(OC)cc1CNCc1ccco1` gave 2A StopGo -6%, NS1 inh -1%, SARS PLP yeast -2%, Lassa entry inh inconclusive, Marburg entry inh 18% and RE007 growth inh -16%.
Screening Cc1ccc(-n2ncc3c(=O)n(CC(N)=O)cnc32)cc1 returned 2A StopGo 8%, NS1 inh 13%, SARS PLP yeast -12% and RE007 growth inh 9%.
CCNc1nc(NC(C)C)nc(N(C#N)CCOc2ccc(Cl)cc2Cl)n1 was read as Cruzain inh Det -11%, Cruzain noTriton -3%, 2A StopGo -25%, NS1 inh -36%, SARS PLP yeast -15%, Lassa entry inh 1%, Marburg entry inh -21%&-21% and RE007 growth inh 11%.
Screening CCc1ccc(CNC(=O)C2CCN(S(=O)(=O)N3CCC4(CC3)OCCO4)CC2)cc1 returned 2A StopGo -16%, SARS PLP yeast 0%, Lassa entry inh 0%, Marburg entry inh 4% and RE007 growth inh 5%.
Screening Cc1noc(C)c1COc1ccccc1C(=O)NCCc1ccccc1 returned 2A StopGo -16%, SARS PLP yeast 3%, Lassa entry inh 8%, Marburg entry inh -11% and RE007 growth inh 11%.
CCOC(=O)N1CCC(N2CC34C=CC(O3)C(C(=O)Nc3ccc(OCC)cc3)C4C2=O)CC1 (stereo not given) was read as Cruzain inh Det 4.5%, Cruzain noTriton 11%, 2A StopGo 8%, NS1 inh 5%, SARS PLP yeast -3% and RE007 growth inh -3%.
`CCCCOC(=O)c1cc(=O)[nH]c2ccc(C)cc12` gave 2A StopGo -1%, NS1 inh -2%, SARS PLP yeast 0%, Lassa entry inh 20%[46.1 µM], Marburg entry inh -6%[46.1 µM] and RE007 growth inh 4%.
